KAT2A inh: qHTS Assay for Inhibitors of GCN5L2; AID 504327, 2011; GCN5L2 HAT assay, ThioGlo1 CoA-SH fluorescence; Histone acetyltransferase KAT2A (Homo sapiens), Q92830; hit rate 0.21% among 390,000; Potency, µM (doses to about 58.9 µM), inactives show at the top dose activity change, negative = inhibition, hits mostly inhibitors
Target sequence (Q92830 whole entry, looked up): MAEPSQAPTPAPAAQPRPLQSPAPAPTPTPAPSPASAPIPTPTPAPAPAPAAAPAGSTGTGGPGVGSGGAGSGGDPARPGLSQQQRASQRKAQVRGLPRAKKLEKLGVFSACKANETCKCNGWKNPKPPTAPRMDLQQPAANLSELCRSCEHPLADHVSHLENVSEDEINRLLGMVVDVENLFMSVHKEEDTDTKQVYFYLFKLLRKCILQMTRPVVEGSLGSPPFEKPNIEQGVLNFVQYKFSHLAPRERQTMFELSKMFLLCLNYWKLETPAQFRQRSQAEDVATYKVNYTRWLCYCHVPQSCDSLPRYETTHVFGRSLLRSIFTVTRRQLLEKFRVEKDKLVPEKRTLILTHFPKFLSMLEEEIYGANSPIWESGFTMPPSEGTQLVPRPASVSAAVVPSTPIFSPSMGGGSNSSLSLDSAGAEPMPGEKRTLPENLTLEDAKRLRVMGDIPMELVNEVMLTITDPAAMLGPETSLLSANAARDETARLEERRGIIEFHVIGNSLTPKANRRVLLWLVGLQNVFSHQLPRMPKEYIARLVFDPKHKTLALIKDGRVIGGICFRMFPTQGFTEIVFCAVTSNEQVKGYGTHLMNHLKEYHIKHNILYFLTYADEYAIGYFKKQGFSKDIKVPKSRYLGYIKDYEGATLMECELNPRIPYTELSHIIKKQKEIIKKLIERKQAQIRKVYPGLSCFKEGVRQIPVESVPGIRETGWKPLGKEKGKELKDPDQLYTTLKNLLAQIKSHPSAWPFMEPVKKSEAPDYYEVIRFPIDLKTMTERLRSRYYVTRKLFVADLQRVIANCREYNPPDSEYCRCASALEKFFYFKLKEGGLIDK
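Free CoA generated was detected with ThioGlo1 (50uM) fluorescence at Ex340nm/Em540nm, read immediately and after 20 min at room temperature. Enzyme, 20 nM in HEPES pH 7.5 buffer, saw compounds 15 min before adding 75uM H3(1-25) peptide and 70uM acetyl-CoA.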
N370S GC mod: qHTS Assay for Inhibitors and Activators of N370S glucocerebrosidase as a Potential Chaperone Treatment of Gaucher Disease; Lysosomal acid glucosylceramidase (Homo sapiens), P04062; N370S GC spleen homogenate, 4MU-glucoside fluorescence; Potency, µM (doses to about 59.4 µM), inactives show at the highest dose activity change, negative = inhibition, most hits filed as inhibitors; hit rate 0.092% among 330,000; AID 2101, 2009;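 further: 0% = full enzyme activity and -100% = no enzyme basal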
Active calls of the source: *; ? = inconclusive; . = no result given; & = joins results of further samples; [ ] = another dose, or the depositor's remark. The call rests on the fitted dose curve; in most records, active means well fitted curve in the direction sought with a large enough effect; inconclusive means small, poorly fitted or top-dose-only effect, or another doubt; inactive means no such curve, though single readings can be large; an effect the other way counts as inactive or inconclusive. Unless noted, on the % scale 0 is the no-effect control and ±100 the full control effect; potency means the concentration at half of the fitted maximal effect. The list is partial; most or all hits stand in other tables.

Molecule	KAT2A inh	N370S GC mod
Cc1c(C=NCCOCc2ccccc2)cnn1C	?	1%
O=C(c1ccccc1)c1ccc2cc(O)ccc2c1	1%	2%
CSc1ncc(Cl)c(C(=O)Nc2cc(C)ccc2C)n1	6%	-3%
CN(C(=O)COC(=O)c1ccc2c(c1)OCCO2)c1ccccc1	15%	0%
COc1ccc2c(c1)OC/C(=C/c1cccs1)C2=O	-19%	?
COc1ccc(S(=O)(=O)N2CCN(C3CCN(Cc4ccccc4)CC3)CC2)cc1	3%	9%
COC(=O)c1cc(NC(=O)CN(c2ccc3c(c2)OCO3)S(C)(=O)=O)ccc1Cl	-8%	4%
O=C(O)c1ccccc1C(=O)NNc1ccc(Cl)cc1	-18%	-8%
CC(C)COc1ccc(CN=C(N)N=C(N)N)cc1Cl	-2%	-4%
CCCn1c(N)c(C(=O)CSc2nc(N)cc(=O)[nH]2)c(=O)n(C)c1=O	-2%	.
COc1ccc(CN2CCc3c([nH]c4ccccc34)C2)c(OC)c1C	-1%	-2%
CC1CN(CC(O)COC(c2ccccc2)c2ccccc2)CC(C)O1 (stereo not given)	-6%	0%
CC1(C)CC(=O)C=C(NCc2cccnc2)C1	-7%	2%
CCCN1CCN(S(=O)(=O)c2ccc3c(c2)NC(=O)C(C)C(=O)N3)CC1 (stereo not given)	-4%	-1%
CC(Oc1ccccc1)C(=O)NC1CC(C)(C)NC(C)(C)C1 (stereo not given)	-7%	-5%
O=C(CCC(=O)N1CCOCC1)NCCc1ccccc1	-2%	.
NC(=S)Cc1ccccc1Cl	-3%	6%
COCCNC(=O)c1csc(Nc2cccc3ccccc23)n1	?	-1%
O=C(CNC(=O)c1ccccc1)NC1(C(=O)NC2CCCCC2)CCCCC1	1%	-13%
O=S(=O)(Nc1ccc(S(=O)(=O)N2CCCCCC2)cc1)c1cccs1	-12%	16%
COCCCNC(=O)CSC1=Nc2ccccc2C2=NC(CC(=O)NCc3ccccc3)C(=O)N12 (stereo not given)	4%	.
Cc1nc(NC(=O)c2c(-c3ccccc3Cl)noc2C)sc1C	?	-1%
Cc1cc(-c2ccc(S(=O)(=O)N(C)Cc3ccccc3)cc2)on1	-2%	0%
COc1ccc(NC(=O)C(=O)NCC(=O)Nc2cccc(C(F)(F)F)c2)cc1	-2%	2%
CCC(=O)Oc1ccc(NC(=O)CSCc2ccccc2)cc1	-15%	3%
COc1cc(OC)cc(C(=O)N[C@H](C(=O)OCC(=O)Nc2ccc(F)c(F)c2)C(C)C)c1	-7%	?
Cc1ccc(S(=O)(=O)N2CCCN(S(=O)(=O)c3ccc4c(c3)OCCO4)CC2)cc1	-2%	4%
Cc1cc2c(c(=O)n1CCN(C)C)C(c1ccccc1Br)C(C#N)=C(N)O2 (stereo not given)	-3%	-21%
Cn1c(N)c(C(=O)COC(=O)c2ccco2)c(=O)n(C)c1=O	2%	17%
C/C(=N\Nc1ccccc1[N+](=O)[O-])c1ccccc1O	-12%	0%
O=C(CSc1nc(-c2ccc(F)cc2)[nH]c1-c1ccccc1)NCC1CCCO1 (stereo not given)	-1%	.
COc1ccccc1N(CC(=O)Nc1c(C)n(C)n(-c2ccccc2)c1=O)S(=O)(=O)c1ccc(C)cc1	-5%	1%
Cc1cc(C)c(C#N)c(SC2CCCCC2=O)n1 (stereo not given)	-3%	7%
CC(=O)Nc1ccc(-c2cc(C(=O)O)c3ccc(C)cc3n2)cc1	-7%	-4%
COc1ccc(N2CCN(/C(=N\S(=O)(=O)c3ccccc3)Nc3nc(C)cc(C)n3)CC2)cc1	2%	1%
O=S(=O)(c1ccccc1)c1ccc(NCc2ccco2)cc1	-6%	1%[2.35 µM]
O=C1C2C3C=CC(C3)C2C(=O)N1CC1CCCO1 (stereo not given)	-6%	-11%
O=C(CCNC(=O)N1CC(=O)Nc2ccccc21)NCc1ccc(F)cc1	1%	-1%
CN1CCN(C(=O)C(=O)Nc2c3c(nn2-c2ccc(Cl)cc2)CSC3)CC1	-4%	.
O=C(COC(=O)c1cnccn1)NCCc1ccc(Cl)cc1Cl	1%	-3%
CCCn1c(CCC(=O)Nc2ccc(OCC)cc2)nc2cccnc21	-6%	.
COC(=O)c1ccc(NC(=O)C(C)N2Cc3ccccc3C2=O)cc1 (stereo not given)	0%	.
CCSc1nsc(SCC)c1C(N)=O	1%	5%
COc1cc(O)c(C(C)=O)cc1OC	-2%	4%
CCCCN1C(=O)/C(=C2\SC(N3CCOCC3)=NC2=O)c2ccccc21	0%	-14%
Nc1nc(C(=O)N2CCOCC2)nn1S(=O)(=O)c1ccc(Cl)cc1	3%	0%
CN(C)c1ccc(C2CC(=O)NC3=C2C(=O)CC(C)(C)C3)cc1 (stereo not given)	-3%	-1%
COC(=O)C1(C(=O)OC)NOC2C(=O)N(N(C)c3ncc(C(F)(F)F)cc3Cl)C(=O)C21 (stereo not given)	0%	3%
Cc1ccc(Cl)cc1N1CCN(C(=O)CCc2nnc3n(C)c(=O)c4ccccc4n23)CC1	-2%	.
Cc1ccc(C)c(OCCCC(=O)Nc2ccccc2C(N)=O)c1	3%	25%
CCCCCCCNC(=O)CC(NS(=O)(=O)c1ccc(NC(C)=O)cc1)C(C)C (stereo not given)	-6%	-3%
CCOc1ccc(S(=O)(=O)N2CCC(C(=O)NCC3CCCO3)CC2)cc1 (stereo not given)	-4%	-3%
COc1ccc(C(=O)NCCc2nnc(SCC(=O)Nc3ccccc3)n2C)cc1	0%	-1%
O=C(NCc1ccc(F)cc1)C1C2C=CC3(CN(Cc4cccnc4)C(=O)C13)O2 (stereo not given)	1%	9%
O=C(Nc1ccc(-c2cn3ccccc3n2)cc1)c1ccco1	-10%	-5%
Cc1cc(Nc2cccc(F)c2)nc(-c2ccccc2O)n1	-1%	11%
C[C@H](CO)N1C[C@H](C)[C@@H](CN(C)CC2CCCCC2)Oc2c(NS(=O)(=O)c3ccc(F)cc3)cccc2C1=O	-1%	.
N/C(=N\S(=O)(=O)c1cc(C(F)(F)F)cc(C(F)(F)F)c1)c1cccs1	-8%	-10%
CC(C)(C)C(=O)Nc1c2c(nn1-c1cccc(Cl)c1)CS(=O)(=O)C2	-12%	-12%
CCOC(=O)CNC(=O)CSc1cc(C)nc2ccc(OC)cc12	0%	2%

Another view of 2 compounds above.
COc1ccc(C(=O)NCCc2nnc(SCC(=O)Nc3ccccc3)n2C)cc1
  KAT2A inh: 0%
  N370S GC mod: -1%

O=C(NCc1ccc(F)cc1)C1C2C=CC3(CN(Cc4cccnc4)C(=O)C13)O2 (stereo not given)
  KAT2A inh: 1%
  N370S GC mod: 9%

(more compounds)
The line under a structure holds: KAT2A inh, N370S GC mod
> O=C(CSc1ccc(-c2ccco2)nn1)Nc1ccccc1
→ -8%, 12%
> O=C(NCC(=O)N1CCN(Cc2ccccc2)CC1)c1cccs1
→ 0%, .
> N#C/C(=C/c1cn(-c2ccccc2)nc1-c1cccc(S(=O)(=O)N2CCCC2)c1)C(=O)NCc1ccco1
→ -12%, 3%
> Cc1nn(C)c(Oc2ccccc2)c1CCNS(=O)(=O)c1ccc(F)cc1
→ ?, -6%
> COc1ccc(-c2[nH]ncc2CN(C)C(C)c2ccon2)cc1F (stereo not given)
→ -5%, -3%
> CCOc1ccccc1C1C(C#N)=C(SCC(=O)OC)NC(=O)C1C(=O)OC (stereo not given)
→ 1%, 20%
> CCc1ccc(CNC(=O)CCCn2ccc3cc(S(=O)(=O)N4CCCC4)ccc32)cc1
→ -4%, .
> CC(=O)N1CCCN(Cc2nc(C3(c4ccc(C)cc4)CCCC3)no2)CC1
→ -2%, -12%
> COc1ccc(NC(=O)c2ccc(OC)c(S(=O)(=O)N3CCCCC3C)c2)cn1 (stereo not given)
→ -5%, .
> Cc1cc(NC(=O)c2cccc(S(=O)(=O)N3CCCC3)c2)no1
→ -3%, 1%
> Cc1ccsc1/C=C1\SC(N2CC(C)OC(C)C2)=NC1=O (stereo not given)
→ -8%, -2%
> CCOC(=O)C1=C(O)C(=O)N(c2ccc(S(N)(=O)=O)cc2)C1c1ccc(OC)cc1 (stereo not given)
→ -12%, 6%
> COc1cccc(C2CC(=O)Nc3c2c(=O)n(C)c2nc4ccccc4n32)c1 (stereo not given)
→ -5%, .
> COc1ccc(N(CC(=O)N2CCc3ccccc32)S(=O)(=O)c2c(C)n[nH]c2C)cc1
→ -3%, 2%
> Cc1c(NC(=O)C2(c3ccccc3)CCOCC2)c(=O)n(-c2ccccc2)n1C
→ -8%, 2%
> O=C(/C=C/c1ccco1)Nc1scc(-c2ccccc2)c1C(=O)O
→ ?, 12%
> CC(C)CN(C(=O)CN1CCOCC1)c1c(N)n(CC(C)C)c(=O)[nH]c1=O
→ 3%, 23%
> CC(C)c1ccc(NC(=O)Cn2c(=O)oc3cc(S(=O)(=O)N4CCCC4)ccc32)cc1
→ -13%, .
> Nc1ccc2c3c(cccc13)C(=O)N(c1ccccc1)C2=O
→ -11%, 12%
> CSc1ncc(C(=O)NCc2ccc(Cl)cc2)c(C(F)(F)F)n1
→ -7%, .
> O=C(CSc1nnc(-c2ccccc2)o1)N1CCc2ccccc2C1
→ -1%, 23%
> COc1ccc(N2CCN(C(=O)c3cc4c(-c5cccc(OC)c5)nn(C)c4s3)CC2)cc1
→ -8%, -5%
> CN1C2CC(OC(=O)C(CO)c3ccccc3)CC1C1OC12 (stereo not given)
→ -4%&-13%&-23%, -2%&1%&5%&-10%
> Cc1ccc(C(=O)OCC(=O)Nc2cc(F)ccc2F)cc1NC(=O)c1ccco1
→ 0%, 9%
> COCCSc1nc2c(c(=O)[nH]c(=O)n2C)n1Cc1cccc(C)c1
→ -3%, 15%
> Cc1ccc(S(=O)(=O)Nc2cc(C(F)(F)F)ccc2N2CCOCC2)c(C)c1
→ -7%, ?
> CCO[C@@H]1OC(C(=O)NCc2ccccc2)=C[C@H](C(C)(C)C)[C@H]1CCCO
→ -2%, -4%
> Cc1ccc2c(c1)c(=O)c(Br)c(C)n2Cc1ccccc1
→ -4%, 7%
> CCC1CCC(c2nnc(-c3ccc(Br)cc3)o2)CC1 (stereo not given)
→ -4%, 9%
> COCCn1cnnc1SCC(=O)Nc1cccc(S(=O)(=O)N2CCCCCC2)c1
→ 3%, 11%

7 compounds drawn at random from those above, as already listed:
The line under a structure holds: KAT2A inh, N370S GC mod
> COc1ccc(C(=O)NCCc2nnc(SCC(=O)Nc3ccccc3)n2C)cc1
→ 0%, -1%
> CCC1CCC(c2nnc(-c3ccc(Br)cc3)o2)CC1 (stereo not given)
→ -4%, 9%
> O=C1C2C3C=CC(C3)C2C(=O)N1CC1CCCO1 (stereo not given)
→ -6%, -11%
> Cc1cc(Nc2cccc(F)c2)nc(-c2ccccc2O)n1
→ -1%, 11%
> C[C@H](CO)N1C[C@H](C)[C@@H](CN(C)CC2CCCCC2)Oc2c(NS(=O)(=O)c3ccc(F)cc3)cccc2C1=O
→ -1%, .
> O=C(NCC(=O)N1CCN(Cc2ccccc2)CC1)c1cccs1
→ 0%, .
> O=C(O)c1ccccc1C(=O)NNc1ccc(Cl)cc1
→ -18%, -8%

(cont.)
The line under a structure holds: KAT2A inh, N370S GC mod
> CCN1CCN(C(=O)C(=O)c2cn(CC(=O)N(CC)CC)c3ccccc23)CC1
→ -15%, -9%
> COCCN1C=C2C(=O)C(C)(OC(=O)CCC(=O)OC)C(=O)C=C2C=C1C1CC1 (stereo not given)
→ -6%, -5%[12.8 µM]
> CCCCn1c(N)c(N(CC)C(=O)c2cccc(C)c2)c(=O)[nH]c1=O
→ -2%, -9%
> COc1ccc(/C=C/c2ccc(=O)n(Cc3ccccc3)n2)cc1
→ -8%, 5%
> O=S(=O)(c1ccc2nc(-c3ccccc3)[nH]c2c1)N1CCN(c2ccc(Cl)cc2)CC1
→ -5%, -28%
> COc1ccc(OC)c(NC(=O)CCN2CCCCCC2)c1
→ 3%, -3%
> CCCCNC(=O)c1ccccc1Cl
→ -8%, -3%
> O=C(CN(Cc1cccs1)C(=O)c1csnn1)NC1CCCC1
→ 4%, 1%
> CCOc1ccc(NC(=O)C(=O)NCC2CCCN2CC)cc1 (stereo not given)
→ -10%, 8%
> COc1ccc(C2/C(=C(/O)c3ccccc3)C(=O)C(=O)N2C)c(OC)c1 (stereo not given)
→ -9%, 1%
> Cc1ccccc1N1CCN(c2ccc(NC(=O)C3CCCCC3C(=O)O)cc2)CC1 (stereo not given)
→ 2%, -14%
> CC(C)c1nc2ccc(NC(=O)C3CCCCC3)cc2[nH]1
→ 1%, 2%
> COc1ccccc1NC(=O)c1ccccc1S(=O)(=O)c1ccccc1[N+](=O)[O-]
→ -11%, -4%
> COc1ccccc1CN1CC(C(=O)NCc2cnn(C)c2)CCC1=O (stereo not given)
→ -21%, 0%
> O=C(NCc1ccco1)c1csc2c1CCCC2
→ 0%, 14%
> COc1ccc(NC(=O)CSCC(=O)Nc2nnc(C)s2)cc1
→ -4%, -23%
> O=C(COc1ccc2c(-c3ccccc3)cc(=O)oc2c1)NCc1cccs1
→ -12%, -6%
> O=C(c1ccco1)N1CCN(c2ncnc3c(-c4ccc(Cl)cc4)nsc23)CC1
→ -5%, 3%
> C/C(=N\NC(=O)c1cc2ccccc2cc1O)c1ccc2c(c1)OCO2
→ -4%, -21%
> CCCCCCCCS(=O)C1CS(=O)(=O)CC1O (stereo not given)
→ 3%, -9%
> COc1cccc(N(C(=O)Cn2nnc(-c3ccc(Cl)cc3)n2)C(C(=O)NCC2CCCO2)c2ccc(C)cc2)c1 (stereo not given)
→ -4%, 2%
